# Screens from PubChem BioAssay.
# Tg IFNy HTS: inhibitors of Toxoplasma gondii growth with IFN-gamma. activity change, negative = inhibition, %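 (about 20 µM by stock and volumes)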. Toxoplasma gondii growth in IFN-gamma-treated host cells; stronger effect = lower value; reference of the scale not given here. 69,000 tested, 3.8% active. AID 1259416;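 active = below -70%; inconclusive = fit judged invalid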;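 note: host cells are HeLa cells infected with Toxoplasma gondii; parasite growth read as luciferase light; one replicate is shown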
# Starred values were filed as active, the others as inactive; i = inactive; ? = inconclusive. These rows are one share of the data (hit frequency here may not be typical).
SMILES,Tg IFNy HTS
CC(C)Nc1n[nH]c2nc(C3CCCN3C(=O)c3ccc(OCCN(C)C)cc3)ccc12 (stereo not drawn),-8
CCn1cc(-c2ccnc(SCC(=O)O)n2)c(C)n1,44
OCCN1CCN(c2cc(C(F)(F)F)nc3ccccc23)CC1,32
COc1ccc2[nH]c(C(=O)NC(C)c3ccc4c(c3)CCCO4)c(NC(C)=O)c2c1 (stereo not drawn),15
c1cnc(NC2COC3(CCN(Cc4ccn[nH]4)CC3)C2)nc1 (stereo not drawn),-3
O=C(CCc1ccccc1)Nc1cccc(NC(=O)c2cccc(=O)[nH]2)c1,4
Cc1c(-c2ccc(C(C)N3CCCCC3)cc2)c(=O)n(C)c(=O)n1C (stereo not drawn),-6
Cc1nn(Cc2cccc3ccccc23)c(C)c1NC(=O)c1ccccn1,-2
Cc1ccc(CN(CCCn2ccnc2)Cc2ccnc(N3CCN(C)CC3)n2)s1,37
Cc1cccc(-c2nc(Cn3nnc(-c4nc(-c5cccc(Br)c5)no4)c3C)c(C)o2)c1,10
O=C(O)[C@H]1C[C@H](C(=O)NCc2cccnc2)CN(Cc2cc3ccccc3o2)C1,1
N#Cc1ccc(S(=O)(=O)N2CCC3(CC2)CN(c2ccc4c(c2)OCO4)C3=O)cc1,5
COc1ccc(-n2c(=O)c(C(=O)Nc3cc(F)cc(F)c3)c(O)c3cccnc32)cc1,21
O=C(O)c1ccccc1C(=O)OCCCCOC(=O)c1ccccc1C(=O)O,-22
OCCCn1ccnc1-c1ccccc1OCc1ccccc1,-55
CCCS(=O)(=O)N1C[C@H]2COC[C@@H](Cc3nc(C)no3)[C@H]2C1,12
CC(C)(C)NCc1ccccc1OCc1cccs1,2
O=C1NCC2(CCCN(C(=O)c3cnc(Nc4ccccc4)nc3)C2)O1 (stereo not drawn),56
Cc1nc2cc(C(=O)N3CCC(c4ccc(Nc5ccc(F)cn5)cn4)CC3)ccc2n1C,-13
C=CCN(C(=O)Cc1cc(F)ccc1C)C1(C)CCS(=O)(=O)C1 (stereo not drawn),2
O=C(c1cscn1)N1CC[C@H]2[C@H]1CCN2Cc1ccc(F)cc1,-15
CCCS(=O)(=O)N1CCOC(CCCC(C)C)C1 (stereo not drawn),4
NCCOc1ccccc1OCCN,-4
FC(F)(F)c1cc(Cl)c(N/N=C2/CCCc3ccccc32)c(Cl)c1,-6
Cc1cc(C)nc(N2CCC(CNC(=O)c3cc(C(C)(C)C)[nH]n3)CC2)n1,-77*
CN(Cc1ccc2cccc(O)c2n1)Cc1noc(C2CCC2)n1,-12
COCC#Cc1ccc([C@@H]2[C@H](CO)N3C(=O)CN(C(=O)C4CCCCC4)C[C@@H]23)cc1,5
Cc1nnc(Nc2cccc(C3CCCN(C(=O)CN)C3)n2)s1 (stereo not drawn),33
Cc1ccc(-c2cnc(-n3cnnc3)c(C)c2)c(-n2cccn2)c1,8
CN(C)CC(=O)N1[C@H](C#N)[C@@H](c2ccc(C#CC3CCCCC3)cc2)[C@H]1CO,-6

# A different layout for part of the listing above:
Molecule	Tg IFNy HTS
CCCS(=O)(=O)N1CCOC(CCCC(C)C)C1 (stereo not drawn)	4
O=C(c1cscn1)N1CC[C@H]2[C@H]1CCN2Cc1ccc(F)cc1	-15
Cc1cc(C)nc(N2CCC(CNC(=O)c3cc(C(C)(C)C)[nH]n3)CC2)n1	-77*
Cc1nnc(Nc2cccc(C3CCCN(C(=O)CN)C3)n2)s1 (stereo not drawn)	33
NCCOc1ccccc1OCCN	-4

# (more compounds)
SMILES,Tg IFNy HTS
COc1ccc(-c2ccccc2[C@@H]2[C@@H](CO)N(C(=O)NC(C)C)[C@H]2C#N)cc1,-1
Cc1ccc(-c2nc(Cn3c(=O)c4cccnc4n(-c4ccccc4)c3=O)c(C)o2)cc1,-3
CCN(CC)C(=O)C1Cn2ccnc2C2(CCN(CC(C)C)CC2)O1 (stereo not drawn),-51
OC1CCC(c2nc(CCc3ccccc3)nn2-c2ccccn2)CC1 (stereo not drawn),-9
COc1ccc(CCNC(=O)N2CCN3CCN(C)CC3C2)cc1 (stereo not drawn),3
CCNC(=O)C[C@H]1CC[C@H]2[C@@H](COC[C@H](O)CN2C(=O)c2ccccn2)O1,24
CN(C)CC1(O)CCCN(C(=O)C2=Cc3ccccc3OC=C2)CC1 (stereo not drawn),98
CCC(=O)N1CCc2cc(S(=O)(=O)Nc3cccc(-c4nncn4C)c3)ccc21,-9
Nc1ccc(-c2ccc(S(=O)(=O)c3cccc(N)c3)cc2N)cc1,51
C(=C\c1ccccn1)/c1cccc(-n2cnnc2)c1,98
N#C[C@@H]1[C@@H](c2ccc(-c3cccnc3)cc2)[C@H](CO)N1C(=O)C1CCOCC1,9
CCCc1cnc(-c2cccc3[nH]ccc23)nc1,159
Cc1ccc(-c2nc(CN(c3ccc(C)cc3)S(=O)(=O)c3cccs3)c(C)o2)cc1,-2
COc1cc(OC)c(NC(=O)Cn2c(=O)cc(C(=O)N3CCCCC3)c3ccccc32)cc1Cl,-11
CCOCC12CCCOC1CCN(C(=O)c1ccc3c(c1)OCO3)C2 (stereo not drawn),-4
CC(=O)N1CC2(C1)[C@H](c1ccccc1)[C@@H](CO)N2C(=O)Cc1ccccc1,46
COc1cccc(-c2nn(C)c3c2[C@H]2CN(C(=O)C4(C)CC4)C[C@@H]2C3)c1,1
O=C(Cn1ncc2c(N3CCN(c4ccccn4)CC3)ncnc21)NCc1ccc(F)c(Cl)c1,-17
CCc1ccc(N2CCC(C(=O)NCCc3c[nH]c4ccc(C)cc34)C2=O)cc1 (stereo not drawn),69
COc1c(F)cccc1C(=O)N1CCC(CO)(CCOc2ccccc2)CC1,-3
CN(C)C(=O)COCC1CN(Cc2cnn(C)c2)Cc2ccnn2C1 (stereo not drawn),3
O=C(c1cn(CC2CCCNC2)nn1)N1CCN(c2ccccc2F)CC1 (stereo not drawn),-6
Cc1c(Br)ccc(NC(=O)COC(=O)c2cccs2)c1C,63
N[C@@H]1CC[C@@H](NC(=O)CCn2c(=O)[nH]c3ccccc32)C1,2
O=C1CSC(=S)N1Cc1cccs1,8
C[C@@H]1CCCCO[C@@H](CN(C)Cc2ccncc2)[C@H](C)CN([C@H](C)CO)C(=O)c2cc(NS(=O)(=O)c3ccc(Cl)cc3)ccc2O1,-105*
CCCN(CC1CCCO1)C(=O)CC1(c2ccccc2F)CC(=O)N(C2CCCC2)C1=O (stereo not drawn),-1
C/C=C/c1ccc([C@H]2[C@@H](CO)N(CC3CC3)C23CN(C(=O)c2ccc4c(c2)OCO4)C3)cc1,-60
Cc1[nH]c2c(C)ccc(C)c2c1CC(=O)NCc1nnc2n1CCCCC2,9
CC1=C(C(=O)Nc2ccc(C)c(C)c2)C2(CCN(Cc3ccccc3)CC2)OC1=O,12
COc1ccc(CCNC(=O)C2CCCN2C(=O)Nc2ccc(C)cc2)cc1OC (stereo not drawn),23
CC1=CC(C)(C)N(C(=O)CNC2CCCCC2)c2cc(C)ccc21,-49
CCCN(Cc1ccc(SC)cc1)C(=O)c1ccc2c(c1)nnn2C,-4
OC[C@H]1O[C@@H](n2cnc3c(NC4CCCC4)nc(Cl)nc32)[C@H](O)[C@@H]1O,-70
Cc1noc(C)c1NC(=O)Nc1ccc2c(c1)C(=O)N([C@H](C)CO)C[C@H](C)[C@@H](CN(C)S(=O)(=O)c1ccc(F)cc1)O2,15
CCOC1CCC2(CCN(C(=O)c3ccc[nH]3)CC2)c2ccccc21 (stereo not drawn),-67
CCn1ccc(C(=O)N2CCC(c3ncc(C(=O)Nc4ccccc4OC)c(C)n3)CC2)n1,-50
O=C(NCc1ccc(S(=O)(=O)N2C=CC(C(F)(F)F)=NCC2)s1)c1ccccc1,-53
Cc1ccc(CN2CCC(N(C)C)CC2C(=O)O)cc1 (stereo not drawn),i
CN(C)S(=O)(=O)N1CC[C@@]2(C[C@H](OCc3ccccn3)CO2)C1,76
O=C(CN1CCCC(O)(CO)CC1)NCc1ccccn1 (stereo not drawn),6
CNC(=O)[C@H]1CO[C@@H]2CN(S(=O)(=O)c3cccc(F)c3)C[C@@H]12,6
CCc1ccc(-c2noc(-c3nnn(Cc4nc(-c5ccc(OC)cc5)oc4C)c3C)n2)cc1,6
Cc1cccnc1CN(Cc1ccccc1)C(=O)CC1C(=O)NCCN1C(C)C (stereo not drawn),-19
CCN(Cc1cccc(C(=O)Nc2c(C)cnn2C)c1)[C@H]1COC[C@@H]1O,1
O=C(O)CCN1CCN(CCO)CC1,41
O=C1NCC2(CCCN(C(=O)CCn3cnc4ccccc43)CC2)O1 (stereo not drawn),13
Cc1cc(C)nc(Nc2cccc(C(=O)O)c2)n1,293
CCn1ccc2cc(S(=O)(=O)N3CCC(C(=O)NCc4cccnc4)CC3)ccc21,86
C/C=C/Cn1c(=O)c2c(nc3n2C(C)C(C)=NN3)n(C)c1=O (stereo not drawn),40
# Carrying on.
SMILES,Tg IFNy HTS
CCOCC1CN(C(=O)c2cnc(C)cn2)Cc2ccnn2C1 (stereo not drawn),2
COc1ccc(CN2CCc3nc(N4CCOCC4)nc(NC4CC4)c3C2)cc1,0
C#CCCC(=O)N(CC)Cc1cc(Cl)ccc1OC,38
Cc1cccc(C)c1NC(=O)CN1CCC2(CC1)N=C(c1ccc(F)cc1)C(=O)N2,23
O=C(CN1C(=O)c2ccccc2S1(=O)=O)Nc1ccc(O)cc1,6
COc1ccc(OC)c(C(c2nnnn2C2CCCCC2)N2CCC(C(N)=O)CC2)c1 (stereo not drawn),-11
O=C(C1CC1)N1CC2(C1)[C@H](c1ccccc1)[C@@H](CO)N2S(=O)(=O)c1ccccc1,-14
S=c1n(-c2ccccc2)cnn1CN1CCOCC1,10
CN(Cc1cccc2cnccc12)C(=O)c1ncc[nH]1,2
COc1cc(C(=O)N2CCc3c([nH]c4ccccc34)C2c2ccc(C)cc2)cc(OC)c1OC (stereo not drawn),265
Cc1nnnn1-c1ccc(CC(=O)N2[C@H]3CCNC[C@@H]2CC3)cc1,-28
CCC(Cn1ccnc1)NC(=O)Cc1c(C)[nH]c2c(C)ccc(C)c12 (stereo not drawn),8
CCCN1C(=O)CCc2cc(NC(=O)c3ccc(C(C)C)cc3)ccc21,-106*
O=C(NCC[C@@H]1CC[C@H](NC(=O)c2ccccc2F)[C@H](CO)O1)c1cnccn1,23
Cc1nnc([C@@H]2C[C@H]3CN(S(=O)(=O)c4ccccc4C)C[C@H]3O2)o1,-7
CCN(CC)C(=O)CC1CC2(CCN(C(=O)N3CCOCC3)CC2)c2ccccc21 (stereo not drawn),8
O=C(C1CCNCC1)N1CCC(O)(Cn2ccc3ccncc32)CC1,49
Cc1cc(C(=O)N2CC[C@@H]3OCCN(Cc4ccncc4)[C@@H]3C2)c(C)o1,-18
O=C(Nc1ccc(-c2nc(-c3cccc(Br)c3)co2)cc1)Nc1ccccc1F,54
Cc1noc(C)c1NC(=O)N(C)C[C@@H]1Oc2cc(C#CCN(C)C)ccc2S(=O)(=O)N([C@H](C)CO)C[C@@H]1C,?

# An excerpt of these results, with each value named.
> CC1=CC(C)(C)N(C(=O)CNC2CCCCC2)c2cc(C)ccc21
- Tg IFNy HTS: -49

> Cc1[nH]c2c(C)ccc(C)c2c1CC(=O)NCc1nnc2n1CCCCC2
- Tg IFNy HTS: 9

> CCn1cc(-c2ccnc(SCC(=O)O)n2)c(C)n1
- Tg IFNy HTS: 44

# Next section.
SMILES,Tg IFNy HTS
Cc1ccc(C)c(-c2nc(Cn3c(=O)c4c(C)cc(C)nc4n(C)c3=O)c(C)o2)c1,-28
Cc1ccccc1-c1ccccc1[C@H]1[C@@H](CO)N(C(=O)c2ccc(F)cc2)[C@H]1C#N,20
Cc1ccc(Nc2nc(C(=O)Nc3ccc(F)cc3Cl)nc3ccccc23)cc1,60
O=C(CCn1c(=O)[nH]c2ccccc21)N1CCn2cncc2C1,-27
O=C(NCc1ccccn1)c1nn(CCc2ccccc2)c2c1CN(C(=O)c1ccccn1)CC2,-2
Cc1cc(C)n(Cc2nc(-c3ccc(NC(=O)c4cccc(F)c4)cc3)oc2C)n1,-37
CN1CC(=O)N(c2cccc(F)c2)CC12CCN(C(=O)c1ccc[nH]1)C2 (stereo not drawn),-35
O=C(C1CC2(CCNCC2)CN1)N1CCC(n2c(=O)[nH]c3ccccc32)CC1 (stereo not drawn),-8
Cc1nccc([C@H]2C[C@H]3CCN(C(=O)CN(C)C)C[C@@H]3O2)n1,-47
CC(=O)Nc1ccc(Cl)c(C(=O)N2CCCC2c2nc(C(C)C)no2)c1 (stereo not drawn),-2

# Random excerpt: two records from the list.
SMILES,Tg IFNy HTS
O=C(CCn1c(=O)[nH]c2ccccc21)N1CCn2cncc2C1,-27
Cc1ccc(CN2CCC(N(C)C)CC2C(=O)O)cc1 (stereo not drawn),i

# (list continues)
SMILES,Tg IFNy HTS
COCCN1CCN(C(=O)c2ccccn2)Cc2cccnc21,-6
Cc1cc(C)cc(C(=O)N2CCC(c3nc(CNC(=O)C(C)C)cs3)CC2)c1,-26
O=C(Cc1ccncc1)N1CC[C@@H]2[C@H]1c1cc(-c3ccccc3F)ccc1N[C@@H]2CO,42
NC(=O)c1cnc2n1CCN(C(=O)COCC1CCCCO1)C2 (stereo not drawn),3
CCc1ncc2c(n1)CN(C(=O)CCn1cnc3ccccc3c1=O)C2,-5
